Screening data: PubChem BioAssay, several laboratories
UCH37 inh = inhibitors of human UCH37 deubiquitinase, primary screen, biochemical, Ub-AMC cleavage, fluorescence; purified proteasome/UCH37; Ubiquitin carboxyl-terminal hydrolase isozyme L5 (Homo sapiens), Q9Y5K5; hit rate 0.33% among 330,000; inhibition, % (concentration not given with the values);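 active = mean of two replicates above 20%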;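 also: 0% = compound-free wells with enzyme and 100% = wells lacking proteasome; stock transfer was 100 nL into about 20 µL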
Target sequence (Q9Y5K5 whole entry, looked up): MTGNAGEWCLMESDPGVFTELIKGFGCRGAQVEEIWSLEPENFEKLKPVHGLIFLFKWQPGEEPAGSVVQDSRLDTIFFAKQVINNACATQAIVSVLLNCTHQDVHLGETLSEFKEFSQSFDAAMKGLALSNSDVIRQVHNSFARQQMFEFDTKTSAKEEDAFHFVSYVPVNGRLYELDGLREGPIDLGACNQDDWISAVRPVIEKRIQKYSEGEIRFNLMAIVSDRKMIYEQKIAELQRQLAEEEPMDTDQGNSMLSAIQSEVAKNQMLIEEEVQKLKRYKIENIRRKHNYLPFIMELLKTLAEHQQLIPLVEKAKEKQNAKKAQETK
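system = Proteasome-associated human UCH37 deubiquitinase | amount = 0.15 nM proteasome as dispensed | medium = pH 7.4 Tris-HCl (50 mM) with ovalbumin, ATP-MgCl2, DTT | incubation = 30 min preincubation with enzyme, 25 min cleavage at room temperature | detection = AMC fluorescence 355/460 nm | read-out basis = percent inhibition | controls = no-proteasome and no-compound wells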
FGF22 binding = binders of human FGF22 protein, primary screen, FGF22 synaptogenesis inhibitor project, biophysical, thermal shift, single point; Fibroblast growth factor 22 (Homo sapiens), Q9HCT0; recombinant FGF22 thermal shift, SYPRO orange fluorescence; percent of sucrose octasulfate shift, DMSO zero; calls only at 9.99 µM; hit rate 1.5% among 340,000;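 active = melting point raised past a set limit in the mean and every replicate; inconclusive = no clear call; three in four hits are not shown here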
HNF4A DNA FP = change in binding of human HNF4A to DNA, primary screen, biochemical, fluorescence polarization, FITC-DNA. Hepatocyte nuclear factor 4-alpha (Homo sapiens), P41235. 1 h. activity change, % at 10 µM. hit rate 0.3% among 360,000. AID 1224865, 2016; in the data active = activity change above about 30%, passing the limit was not always enough;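 also: controls were the assay level and a saturating level of protein; the project sought stronger binding though the title names inhibitors; some compounds called inactive have numbers as strong as hits; positive values seem to mean higher polarization but the record does not say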
Target sequence (P41235 whole entry, looked up): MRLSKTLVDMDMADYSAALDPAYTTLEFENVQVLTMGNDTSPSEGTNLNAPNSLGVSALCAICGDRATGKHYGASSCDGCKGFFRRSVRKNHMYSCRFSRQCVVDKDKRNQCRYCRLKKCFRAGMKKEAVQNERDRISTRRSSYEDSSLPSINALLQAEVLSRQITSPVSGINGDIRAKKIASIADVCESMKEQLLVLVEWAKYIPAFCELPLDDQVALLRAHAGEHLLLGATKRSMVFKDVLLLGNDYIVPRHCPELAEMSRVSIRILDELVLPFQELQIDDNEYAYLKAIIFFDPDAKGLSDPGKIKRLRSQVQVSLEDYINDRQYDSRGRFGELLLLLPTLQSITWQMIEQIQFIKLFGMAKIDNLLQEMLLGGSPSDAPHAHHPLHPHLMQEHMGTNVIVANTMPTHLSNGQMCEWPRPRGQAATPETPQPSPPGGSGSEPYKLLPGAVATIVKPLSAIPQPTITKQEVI
Beta2AR agonist = beta2AR agonists driving receptor internalization, primary screen, cell-based, FAP fluorogen, flow cytometry | hit rate 0.43% among 340,000 | response, % (no concentration beside the values) | Am2.2-beta2AR cells; reference of the scale not given here | AID 504454, 2011 | Beta-2 adrenergic receptor (Homo sapiens), P07550;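 active = response above a set limit, near 3 SD of response in nonfluorescent compounds, cut at about 42% in these data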;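 also: stock transfer was 100 nL into about 11 µL; a reference agonist was the positive control; negative values mostly stem from fluorescent compounds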
LANA-H2A inh = blockers of LANA interaction with H2A/H2B – biochemical, FP readout, HTS, primary screen | Protein LANA1 (Human herpesvirus 8 type P (isolate GK18)), Q9QR71 | cell-free LANA-H2A/H2B peptide, fluorescence polarization | inhibition, % (concentration not given with the values) | hit rate 0.6% among 320,000 | AID 2629, 2010; in the data active = inhibition mostly above about 10%, no sharp cut-off; inactive = mostly below about 6.7%;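 also: stock transfer was 7.5 nL into about 10 µL; 0% = median of vehicle wells and 100% = median of positive control wells; one replicate is shown; the record names a cut of 25% in any replicate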
E coli growth = E. coli growth inhibition, primary screen, OD600; OD600 absorbance (test concentration not listed); Escherichia coli growth, 23 h; hits give low values; hit rate 0.21% among 330,000;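 active = OD600 absorbance below the run mean of sample wells minus 3.6 SD, in any replicate, cut at about 0.56 in these data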;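 also: stock transfer was 300 nL into about 60 µL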
ALR inh = inhibitors of human ALR sulfhydryl oxidase, primary screen, biochemical, H2O2 detection, HRP-luminol luminescence, single point; AID 485317, 2010; inhibition, % (test concentration not listed); purified ALR, DTT oxidation; FAD-linked sulfhydryl oxidase ALR (Homo sapiens), P55789; hit rate 3.8% among 290,000;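 active = mean and each replicate at 75% or more; inconclusive = only one of the two met; inactive = neither met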;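 also: stock transfer was 7.5 nL into about 7.5 µL; 0% = neutral wells and 100% = wells with inactivated enzyme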
Target sequence (P55789 whole entry, looked up): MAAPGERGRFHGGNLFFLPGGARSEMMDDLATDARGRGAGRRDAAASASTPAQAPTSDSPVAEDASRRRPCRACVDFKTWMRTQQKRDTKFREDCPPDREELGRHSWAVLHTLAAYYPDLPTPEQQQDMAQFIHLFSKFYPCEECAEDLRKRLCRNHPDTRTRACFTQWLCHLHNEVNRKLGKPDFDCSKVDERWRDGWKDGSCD
* hit, by the source's call; i = inactive; u = inconclusive; x = no result given; + = active, no number. Only part of the results is shown, so the mix of outcomes need not match the whole.

SMILES	UCH37 inh	FGF22 binding	HNF4A DNA FP	Beta2AR agonist	LANA-H2A inh	E coli growth	ALR inh
COc1cccc(C=O)c1OC(=O)N1CCOCC1	1.4	i	-0.7	19	-5.3	0.69	x
C#CC(=O)N(c1cc(OC)ccc1OC)C(C(=O)NC1CCCC1)c1cccs1 (stereo unspecified)	x	x	0.3	40	0.1	x	0
Cc1ccc(CN(Cc2cccnc2)C(=S)Nc2cccc(Cl)c2C)cc1	0.4	i	3.0	-1	0.8	0.67	0
CC(OC(=O)[C@@H](NC(=O)OCc1ccccc1)C(C)C)C(=O)Nc1ccc(N2CCOCC2)cc1 (stereo partly specified)	3.6	i	4.9	8	x	0.68	x
Cc1ccccc1OCC(=O)OCC(=O)N1CCCc2ccccc21	6.1	i	-2.0	0	11	0.65	-87
COc1ccc(S(=O)(=O)N2CCC(C(=O)N3CCOCC3)CC2)cc1	1.4	x	-1.4	9	-0.7	0.68	10
c1csc(-c2nc3ccccc3s2)c1	-47	i	-2.1	-2	0.8	0.59	2
CCC(C)(C)NC(=O)/C=C/c1cc(OC)c(OC)c(S(=O)(=O)N2CCc3ccccc32)c1	1.3	i	-2.2	-1	0.2	0.71	-3
Cc1ccc(S(=O)(=O)N2CCN=C2SCc2ccc(Cl)c(Cl)c2)cc1	-1.0	x	-5.2	5	-2.3	0.75	-21
O=C(Cn1nnc(-c2ccc(S(=O)(=O)N3CCCC3)cc2)n1)Nc1ccccc1-n1cccc1	3.0	x	0.9	-16	1.5	0.66	2
C/C=C\C(=O)Nc1cccc(C2=NOC3(C2)C[C@@H](C(N)=O)N(C(=O)c2ccccc2)C3)c1 (stereo partly specified)	0.9	i	1.1	-1	-0.3	x	x
CC(=O)Nc1nc(-c2cccs2)cs1	-0.3	x	-2.9	2	-10	0.66	-4
O=C(NCCc1ccccc1)c1cccc(NC(=O)c2ccccc2)c1	x	i	1.6	-3	x	x	x
Cc1ccc(C(=O)NCC(=O)Nc2ccncc2)s1	6.5	i	-3.0	-4	-1.7	0.71	1
COc1ccc(CCN2C(=NC(C)=O)SC3CS(=O)(=O)CC32)cc1OC (stereo unspecified)	1.0	i	-1.3	1	-8.0	0.74	-6
O=[N+]([O-])c1cccc(S(=O)(=O)NCCc2ccccc2)c1	1.4	i	0.6	-1	12	0.73	-30
CCOC(=O)N1CCN(C(=O)COc2cc(=O)n(C)c3ccccc23)CC1	2.2	x	2.9	-3	0.4	0.72	-16
COc1cc(NC(=O)C2=C(N3CCOCC3)/C(=C\c3ccc(Br)cc3)CC2)cc(OC)c1OC	x	x	1.3	26	-6.9	x	-30
O=C(O)c1cc(=O)c2cc(Cl)ccc2o1	3.6	x	-3.1	-6	-2.9	0.78	1
N=C1/C(=C\c2coc3ccccc3c2=O)C(=O)N=C2SC=CN12	3.3	i	8.9	-51	9.2	0.63	40
CN1OCC(S(=O)(=O)c2ccccc2)C1c1ccccc1 (stereo unspecified)	-0.7	x	1.2	-3	-4.7	0.64	-14
CN1CCC(OC(=O)COc2ccc(Br)cc2)CC1	-0.7	x	-1.5	-3	-2.1	0.66	31
COc1ccc(S(=O)(=O)NC(C)C(=O)NCc2cccnc2)cc1OC (stereo unspecified)	1.1	i	-2.3	-7	8.8	0.69	-3
COc1cccc(-c2nc(C(N)=O)c3[nH]c(=O)n(-c4ccccc4)c3n2)c1OC	3.3	i	1.2	-5	-2.3	0.77	14
Cc1ccnc(NC(=O)CCC(=O)N(CC(=O)NCc2ccccc2)Cc2ccccc2)c1	3.8	i	-0.6	-16	4.9	0.67	x
COc1ccc(C)cc1N(C(=O)c1ccco1)C(C(=O)NC1CCCC1)c1ccc(N2CCOCC2)cc1 (stereo unspecified)	3.0	i	2.4	6	-6.4	0.66	1
CCOC(=O)c1cccc(NC(=O)CSc2nnc(COc3ccccc3)n2CC)c1	0.2	x	-4.2	-1	2.5	0.68	-8
CCn1cc(CN2CCC(n3nccc3NC(=O)c3cccc(F)c3)CC2)cn1	2.3	i	-5.2	-7	-5.1	0.72	-15
Cc1ccc2c(c1)CCCN2C(=O)c1cc(C)c(C)s1	0.4	i	4.6	-1	x	0.68	x
Cc1ccc(NC(=O)CSCC(=O)N2CCCc3ccccc32)cc1	-1.2	i	1.8	2	2.0	0.63	-4
COc1cc(NC(=O)CSc2nc3ccccc3cc2Cc2ccccc2)cc(OC)c1	2.2	x	-0.6	4	8.2	0.74	x
CN1/C(=C\C=[N+](C)c2ccccc2)C(C)(C)c2ccccc21	13	x	3.5	7	0.5	0.68	x
CC(=O)Nc1ccc(SC(Sc2ccc(NC(C)=O)cc2)c2ccccc2)cc1	x	+	0.2	-8	x	x	x
Clc1ccc(SCCOCCN2CCCCCC2)cc1	1.2	i	-0.3	6	1.1	0.64	0
O=C(CCNS(=O)(=O)c1cccs1)Nc1nccs1	3.4	x	-1.2	-1	-5.1	0.69	15
CN(C)C1(CNC(=O)C2CCC(=O)N(Cc3ccc(Cl)cc3)C2)CCCCC1 (stereo unspecified)	0.9	i	-2.6	-5	11*	0.71	7

Reprinted from the part before: 6 compounds, then new ones.
SMILES	UCH37 inh	FGF22 binding	HNF4A DNA FP	Beta2AR agonist	LANA-H2A inh	E coli growth	ALR inh
COc1cc(NC(=O)CSc2nc3ccccc3cc2Cc2ccccc2)cc(OC)c1	2.2	x	-0.6	4	8.2	0.74	x
CN1/C(=C\C=[N+](C)c2ccccc2)C(C)(C)c2ccccc21	13	x	3.5	7	0.5	0.68	x
CC(=O)Nc1ccc(SC(Sc2ccc(NC(C)=O)cc2)c2ccccc2)cc1	x	+	0.2	-8	x	x	x
Clc1ccc(SCCOCCN2CCCCCC2)cc1	1.2	i	-0.3	6	1.1	0.64	0
O=C(CCNS(=O)(=O)c1cccs1)Nc1nccs1	3.4	x	-1.2	-1	-5.1	0.69	15
CN(C)C1(CNC(=O)C2CCC(=O)N(Cc3ccc(Cl)cc3)C2)CCCCC1 (stereo unspecified)	0.9	i	-2.6	-5	11*	0.71	7
O=C(CN1C(=O)NC2(CCCC2)C1=O)NC(c1ccccc1)c1ccccc1	-0.5	i	0.2	-1	0.9	0.69	48
Cn1c(=O)oc2cc(S(=O)(=O)NCCC(=O)Nc3ccc4c(c3)OCCO4)ccc21	0.4	x	2.4	0	-2.3	0.75	-6
Cc1cc(C)cc(C(=O)N(NC(=O)Nc2ccc(Cl)cc2)C(C)(C)C)c1	2.9	x	-3.5	6	7.2	0.71	-4
CN(CC(=O)Nc1ccc(Cl)c(C(F)(F)F)c1)C(=O)Cc1cccs1	-0.4	i	-4.9	5	2.2	0.71	4
CC1=C(C(=O)OCc2ccccc2)C(c2cccc([N+](=O)[O-])c2)NC(=O)N1C (stereo unspecified)	3.9	i	2.7	-1	0.0	0.68	-3
O=C(O)C1CCN(c2ccc(S(=O)(=O)N3CCCCC3)cc2[N+](=O)[O-])CC1	4.1	i	5.1	-2	x	0.67	x
CN(Cc1ccccc1)CC(O)CN(C)Cc1ccccc1	0.1	i	1.3	5	x	0.67	x
Nc1ccc(C=C2C=Cc3ccccc32)cc1	4.0	i	-2.5	4	x	0.66	x
O=C(Cn1c(-c2ccccc2)c[n+]2ccsc12)c1ccccc1	-1.4	i	2.8	-5	0.0	0.69	1
CCCCC(CC)C(=O)Nc1cc(C(=O)NCc2ccc(C)cc2)ccc1N1CCC2(CC1)CC(c1cccc(Br)c1)=NO2 (stereo unspecified)	5.9	i	8.0	3	-3.1	0.73	-6
COc1cc(/C=N/NS(=O)(=O)c2ccc(C)cc2)ccc1OCc1cccc(C(=O)O)c1	x	i	-2.5	-1	-7.3	x	19
O=C(NC1CCCCC1)C(c1ccco1)N(C(=O)C(F)(F)F)C1CC1 (stereo unspecified)	3.5	x	-1.4	5	1.1	0.69	-4
O=C1NC2=C(C(=O)CCC2)C(c2ccccc2)N1 (stereo unspecified)	-2.2	i	3.7	-5	-6.1	0.7	-3
CCOC(=O)c1ccc(NC(=O)CSc2nnc(Cn3c(=O)sc4ccccc43)n2C)cc1	2.4	i	-1.1	-11	-8.3	0.75	-3
Cc1cc(CN2CCCC(C(=O)Nc3cccc(-n4cccn4)c3)C2)cc(C)c1O (stereo unspecified)	2.4	i	-0.8	-12	-0.9	0.63	19
O=C(CSc1nc2c(c(=O)n1-c1ccc(Cl)cc1)SCC2)NCC1CCCO1 (stereo unspecified)	9.6	x	3.1	7	-2.0	0.69	73
Cc1nn(CC(=O)N2CCN(S(=O)(=O)c3ccccc3)CC2)c(C)c1[N+](=O)[O-]	-1.5	i	-0.4	-6	-12	0.68	x
O=C(OCc1ccco1)c1cccnc1	2.6	i	-4.2	3	1.7	0.71	-4
Cc1c(NS(=O)(=O)c2cccc(C(=O)OCC(=O)N(C)C3CCCCC3)c2)c(=O)n(-c2ccccc2)n1C	1.9	i	5.1	5	-0.3	0.7	-2
COc1cccc2cc(C(=O)NCc3ccc(C)cc3)c(=N)oc12	4.9	i	-5.9	7	2.8	0.71	-16
O=C1C(Cl)=C(O)C2(Cl)C(Cl)=C(Cl)C12Cl (stereo unspecified)	2.8	+	-4.4	8	x	0.68	x
O=C(O)c1ccc(NS(=O)(=O)c2ccc(Cl)c(Cl)c2)cc1O	-0.2	x	-1.9	-1	-0.3	0.74	2
O=C(OCC(=O)N1CCCCCC1)c1ccc(S(=O)(=O)N2CCOCC2)cc1	2.6	i	-0.3	2	-16	0.68	-17
CCOC(=O)C(=CNc1ccc(C(F)(F)F)cc1Cl)C(=O)OCC	0.4	i	-0.4	-7	5.3	0.72	x
CC1(C)C[C@H]2C3=CCC4[C@@]5(C)CC[C@H](O)C(C)(C)C5CC[C@@]4(C)[C@]3(C)[C@@H](O)[C@@H](O)[C@@]2(CO)[C@@H](O)[C@@H]1O (stereo partly specified)	5.0	i	-1.4	2	1.2	0.74	2
CC(C)CC1NC(=O)N(CC(=O)N2CCCc3ccccc32)C1=O (stereo unspecified)	3.5	i	-1.4	-2	-6.9	0.75	-1
CCOC(=O)CNc1c(-c2ccc(O)cc2)nc2ccccn12	i	x	3.9	15	1.9	0.65	u
c1ccc(COc2ccc(OCCCNC3CCCC3)cc2)cc1	3.5	x	0.8	2	-2.4	0.64	1
CC(C)NC(=O)CN(Cc1ccccc1)S(=O)(=O)c1ccccc1	-0.3	x	-2.7	-3	-3.4	0.68	-1
COc1ccc2[nH]c(C(=O)NCc3ccccc3)c(C)c2c1	-23	i	-4.5	-1	1.0	0.72	-2
Cc1cc(NC(=O)c2ccco2)ccc1NC(=O)c1ccco1	2.8	i	1.0	-3	x	0.63	x
CCOC(=O)/C=c1\s/c(=C\c2sccc2C)c(=O)n1CC(=O)NCc1ccc(C)cc1	x	i	x	x	-6.6	x	-3
Cc1cc2c(n1-c1ccc(C(N)=O)cc1)CC(C)(C)CC2=O	4.6	x	-3.1	9	-1.9	0.67	-34
Cc1ccc(OCc2cc(C(=O)N3CCN(C4CCCC4)CC3)no2)cc1C	2.7	i	3.0	-1	-4.7	0.68	-2
O=c1cc(CN2CCN(c3ccc(F)cc3)CC2)c2cc3c(cc2o1)CCCC3	2.0	x	7.0	-9	-4.9	0.76	10
O=C(Cc1ccccc1[N+](=O)[O-])OCC(=O)c1c[nH]c2ccccc12	-1.1	i	2.6	0	-2.0	0.63	18
